Rango-impB inh: qHTS Assay for Inhibitors of Rango (Ran-regulated importin-beta cargo) - Importin beta complex formation | Importin subunit beta-1 (Homo sapiens), Q14974 | Rango CFP/YFP FRET sensor + importin beta, 45 min | Potency, µM (doses to about 92.2 µM), without a hit: at the top dose inhibition of complex formation | 340,000 tested, 0.031% active; active = rising FRET ratio curve, often small or poorly fitted; inconclusive = mostly compound fluorescence or quenching in the first reads; inactive = flat curves in all reads;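 note: potency is the fitted concentration of half-maximal effect; 0% = DMSO wells and 100% = buffer wells lacking importin beta; nearly all actives have a fitted effect of over 15% in size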
Target sequence (Q14974 whole entry, looked up): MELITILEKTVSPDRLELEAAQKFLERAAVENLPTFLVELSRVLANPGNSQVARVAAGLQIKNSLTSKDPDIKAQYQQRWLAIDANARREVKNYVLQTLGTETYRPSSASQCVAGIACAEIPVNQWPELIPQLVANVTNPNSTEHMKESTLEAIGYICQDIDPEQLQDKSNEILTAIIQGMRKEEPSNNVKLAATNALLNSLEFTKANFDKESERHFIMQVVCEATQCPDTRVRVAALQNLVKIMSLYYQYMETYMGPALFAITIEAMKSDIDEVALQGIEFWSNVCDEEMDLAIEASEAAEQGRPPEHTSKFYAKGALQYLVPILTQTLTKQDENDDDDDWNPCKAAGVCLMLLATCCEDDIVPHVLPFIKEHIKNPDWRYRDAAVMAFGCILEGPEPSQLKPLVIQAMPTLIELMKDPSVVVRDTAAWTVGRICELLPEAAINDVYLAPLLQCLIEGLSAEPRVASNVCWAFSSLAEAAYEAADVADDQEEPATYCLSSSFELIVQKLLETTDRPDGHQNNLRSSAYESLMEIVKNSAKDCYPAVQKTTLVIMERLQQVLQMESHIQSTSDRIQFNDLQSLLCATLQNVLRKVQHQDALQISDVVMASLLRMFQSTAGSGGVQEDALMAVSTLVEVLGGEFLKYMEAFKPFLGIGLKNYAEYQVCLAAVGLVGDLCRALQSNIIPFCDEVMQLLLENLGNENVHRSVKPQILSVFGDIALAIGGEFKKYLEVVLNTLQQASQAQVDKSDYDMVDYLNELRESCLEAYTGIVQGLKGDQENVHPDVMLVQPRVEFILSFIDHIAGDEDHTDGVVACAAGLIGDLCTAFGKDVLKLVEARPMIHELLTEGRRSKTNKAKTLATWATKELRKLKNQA
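Inhibition scored from the CFP 486 nm/YFP 530 nm FRET ratio 45 min after adding 0.125 microM importin beta to 50 nM Rango biosensor preincubated 5 min with compound (room temperature, PBS with DTT, Tween-20, BSA). No-importin wells as positive control.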
Rango release inh: qHTS Assay for Inhibitors of RanGTP induced Rango (Ran-regulated importin-beta cargo) - Importin beta complex dissociation; 340,000 tested, 0.071% active; Potency, µM (series often up to 46.1 µM), for inactives: at the top dose activity change, negative = inhibition; Snurportin-1 (Homo sapiens) + GTP-binding nuclear protein Ran (Homo sapiens) + Importin …; Biochemical FRET Rango-importin beta, RanGTP-induced dissociation; AID 540253, 2011; active means falling FRET ratio curve, often poorly fitted, with flat reads before Ran was added; inconclusive means other falling curves, or compound fluorescence or quenching; inactive means flat or rising ratio curve;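 note: potency is the fitted concentration of half-maximal effect; % of control where 0% means no effect; nearly all actives have a fitted effect of over 45% in size; -100% = wells without RanGTP and RCC1; the record marks most hits as doubtful in a second field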
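Quantitative HTS using a FRET biosensor: 0.1 uM Rango, 0.25 uM importin beta, 0.6 uM Ran, 2 mM GTP, 0.2 uM RCC1 final, PBS with DTT, Tween-20 and BSA. Post-read taken 45 min after Ran addition.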
miR-21 reporter: qHTS Assay for Modulators of miRNAs and/orActivators of miR-21. HeLa miR-21 FLuc reporter, luciferase, 48 h. AID 2288, 2010. Potency, µM (titrated, usually from 38.3 µM), without a hit: at the highest dose reporter change, positive = more light. 340,000 tested, under 10 active; active = well fitted rising curve with a large enough effect; inconclusive = small, poorly fitted or top-dose-only effect; inactive = no such curve, though single readings can be large or run the other way;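 note: % of control where 0% means no effect; miR-21 action dims this reporter so a rising signal means less miR-21 action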
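Luminescence from a firefly luciferase reporter carrying a miR-21 binding site downstream, stably expressed under a CMV promoter in HeLa cells that make miR-21 endogenously, reports miRNA modulation after 48 h compound exposure up to approximately 40uM final.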
GLA inh pH 4.5: qHTS Assay for Inhibitors of Human alpha-Galactosidase at pH 4.5. Alpha-galactosidase A (Homo sapiens), P06280. purified enzyme, 4-MU-alpha-Gal fluorescence, pH 4.5. activity change, negative = inhibition, % at 105 µM. 230,000 tested, under 10 active; inconclusive = small, poorly fitted or top-dose-only inhibition, or a rising curve; inactive = flat fitted curve, though single readings scatter; no compound was filed as active;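 note: 0% = full activity with enzyme and -100% = basal without enzyme; dose as in the result columns while the protocol names 77 µM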
The depositor's hits bear a star; ? = inconclusive; · = no result given; & = joins results of further samples.

GLA inh pH 4.5	Rango-impB inh	miR-21 reporter	Rango release inh	Structure
·	0.5%	·	12.0%	CC(Sc1ccccc1F)C(=O)Nc1ccc2c(c1)OCCO2 (configuration not stated)
-11.3	-3.4%	-2.4%	-5.8%	Cc1[nH]c(=S)n(CC2CCCO2)c1C (configuration not stated)
·	-0.6%	-6.9%	-0.3%	Cc1c(Cl)cccc1NC(=O)NCc1ccc(C)n1C
·	1.6%	·	-2.3%	CC(=O)Nc1ccc(S(=O)(=O)N[C@@H](C)C(=O)OCC(=O)c2ccc[nH]2)cc1
-1.2	0.2%	6.2%	-7.0%	O=S(=O)(c1ccc2c(c1)nc(COc1ccc(Cl)cc1)n2CC1CCCO1)N1CCOCC1 (configuration not stated)
·	1.1%	-0.5%	-9.0%	C[C@H](NC(=O)C1CC(=O)N(c2ccc3c(c2)OCO3)C1)C(=O)NCc1ccco1 (some centres not stated)
·	1.1%	·	9.9%	CC(C)=N/N=C1/NC(=O)C(c2ccccc2)S1 (configuration not stated)
·	1.5%	7.9%	3.5%	COc1cccc(N2CCN(C(=O)c3oc4ccccc4c3NC(=O)CCc3cc(OC)no3)CC2)c1
-4.6	-1.8%	-0.4%	7.0%	Cc1noc(C)c1C(=O)Nc1ccc(F)cc1
-0.1	-4.9%	0.5%	0.1%	CC(=O)Nc1ccc(NC(=O)C(C)O/N=C/c2cccc([N+](=O)[O-])c2)cc1 (configuration not stated)

(next part)
GLA inh pH 4.5	Rango-impB inh	miR-21 reporter	Rango release inh	Structure
-0.6	-1.0%	-4.1%	-15.1%	O=S(=O)(NCc1ccccn1)c1ccc(Cl)c(C(F)(F)F)c1
·	1.5%	·	22.1%	OC(c1ccccc1)(c1ccccc1)c1ccn[nH]1
-0.2	1.0%	-0.2%	17.9%	COc1ccccc1NC(=O)Cn1nc(Cc2cccnc2)c2ccccc2c1=O
-11.1	-0.4%	0.7%	-0.5%	CC(C)N1CCN(Cc2ccc(C#CCCO)cc2)CC1CCO (configuration not stated)
-2.8	?	-6.2%	0.8%	CCc1ccccc1N(CC)C(=O)c1cn(C)c(=O)c2cc(OC)c(OC)cc12
-1.4	6.1%	-48.2%	12.6%	CCS(=O)(=O)n1nc(-c2ccc(Cl)cc2)nc1SC
-0.7	3.4%	-1.8%	0.8%	CCCCOCCCNS(=O)(=O)c1ccccc1
-9.8	?	-6.2%	10.8%	CC1CCCCN1S(=O)(=O)c1ccc(S(=O)(=O)NCCc2ccncc2)cc1 (configuration not stated)
-10.5	-1.1%	-3.4%	2.1%	Cc1ccc(NC(=O)COc2ccccc2C(=O)Nc2ccccc2)cc1Cl
5.7	-3.3%	-4.8%	0.7%	Cc1cc2ccccc2nc1SCC(=O)NC1CCCCC1

Next part:
GLA inh pH 4.5	Rango-impB inh	miR-21 reporter	Rango release inh	Structure
·	6.6%	·	-6.4%	COc1cccc(-c2c(C(=O)O)cc(O)c3ccc(OC)cc23)c1
·	2.0%	9.7%	-15.1%	O=C1COc2ccc(S(=O)(=O)CCC(=O)N3CCN(c4cccc(Cl)c4)CC3)cc2N1
0.8	-0.6%	-3.3%	-8.2%	O=C(CN(c1ccc(F)cc1)S(=O)(=O)c1ccc2c(c1)OCCO2)NCc1ccccn1
3.3	-1.4%	-1.1%	-8.9%	CCC(=O)Nc1ccc(C(=O)NCc2ccccn2)cc1
-2.1	·	-22.5%	·	Cc1c(C(=O)N2CC(C)OC(C)C2)sc2nc(-c3ccccc3)cn12 (configuration not stated)
0.0	-1.2%	-1.4%	-5.8%	OCC1(CCCc2ccccc2)CCN(C2CCSCC2)CC1
·	-2.4%	-12.3%&-17.7%	-5.6%	COc1cccc(C(=O)Nc2nnc(S(=O)(=O)N3CCOCC3)s2)c1
-0.8	-2.8%	0.8%	-10.8%	O=C(Cc1c[nH]c2ccccc12)N1CCN(c2ccccc2)CC1
-5.9	-4.6%	2.4%	-3.2%	CC(=O)C1=C(C)NC(=S)NC1c1cc([N+](=O)[O-])ccc1O (configuration not stated)
4.7	0.4%	0.5%	4.6%	COc1ccc(S(=O)(=O)N(c2onc(C)c2Cl)S(=O)(=O)c2ccc(OC)c(OC)c2)cc1OC

Additional structures follow.
GLA inh pH 4.5	Rango-impB inh	miR-21 reporter	Rango release inh	Structure
14.9	·	-5.0%	·	CC(C)OCCCNc1nc2c(-c3ccccc3)nnn2c2ccccc12
·	-0.5%	-0.4%	-10.8%	COc1ccccc1CNC(=O)C(=O)NCC1OCCCN1S(=O)(=O)c1ccc(F)cc1C (configuration not stated)
4.6	-1.3%	-1.0%	0.2%	COc1ccc(-n2cnnc2)cc1
-2.0	0.1%	-7.8%	18.7%	CC(NC(=O)Cn1nc(-c2ccccc2)c2ccccc2c1=O)c1ccccc1 (configuration not stated)
1.5	1.8%	-1.0%	-9.3%	O=C(CNC(=O)c1ccc2c(c1)OCCO2)N/N=C/c1ccc(Cl)cc1
-7.1	0.4%	-8.1%	24.2%	CCCN1Cc2cccc(C(=O)NC(CC(=O)OCC)c3ccc(OC(C)C)cc3)c2C1=O (configuration not stated)
5.0	-0.2%	-6.0%	18.2%	O=C(Cc1ccsc1)NCC(c1ccco1)N1CCCCC1 (configuration not stated)
4.5	1.8%	6.4%	8.4%	Cc1cc(C(=O)COc2ccc(-c3nnco3)cc2)c(C)n1Cc1ccccc1
·	0.1%	·	0.4%	Cc1ccc(NC(=O)CSCC(=O)NCCc2ccccc2)c(C)c1
·	1.7%	-2.2%	17.3%	Cc1cc(C)cc(-n2ncc3c2CCCC3NC(=O)c2cc(C)oc2C)c1 (configuration not stated)

Entries of single compounds, quoted from the list:
`CC(=O)Nc1ccc(NC(=O)C(C)O/N=C/c2cccc([N+](=O)[O-])c2)cc1` (configuration not stated) across the screens: GLA inh pH 4.5: -0.1; Rango-impB inh: -4.9%; miR-21 reporter: 0.5%; Rango release inh: 0.1%
`CCCCOCCCNS(=O)(=O)c1ccccc1` across the screens: GLA inh pH 4.5: -0.7; Rango-impB inh: 3.4%; miR-21 reporter: -1.8%; Rango release inh: 0.8%
`COc1cccc(N2CCN(C(=O)c3oc4ccccc4c3NC(=O)CCc3cc(OC)no3)CC2)c1` across the screens: GLA inh pH 4.5: ·; Rango-impB inh: 1.5%; miR-21 reporter: 7.9%; Rango release inh: 3.5%

Additional records follow.
GLA inh pH 4.5	Rango-impB inh	miR-21 reporter	Rango release inh	Structure
-8.3	1.8%	15.0%	27.4%	Cn1c(NCc2cccnc2)nc2c1c(=O)n(Cc1ccccc1F)c(=O)n2C
9.5	·	-7.9%	·	c1ccc2c(c1)nc(N1CCN(C3CCCCC3)CC1)c1nnnn12
-2.2	-0.1%	-5.3%	-12.6%	CCc1ccc2c(c1)C(c1ccc([N+](=O)[O-])cc1)=NNC(c1ccc(Br)cc1)=N2
·	8.5%	0.3%	?	CCc1ccc(-c2cc(C)no2)cc1S(=O)(=O)N1CCN(c2cc(C)ccc2C)CC1
·	-2.7%	·	-8.7%	CCCCn1c(N)c(N(CC)C(=O)C2CCC2)c(=O)[nH]c1=O
·	-0.8%	·	-3.7%	O=C(COC(=O)c1ccccc1)Nc1cccc(S(=O)(=O)N2CCCCC2)c1
·	-1.5%	·	-1.5%	N#Cc1ccccc1S(=O)(=O)N1CCN(C(=O)CN2CCCSc3ccccc32)CC1
5.9	-0.1%	-2.1%	2.3%	COc1ccc(/C=N\N=C2/SC(CC(=O)O)C(=O)N2c2ccc(O)cc2)cc1OC (configuration not stated)
·	-0.5%	-2.5%	-7.6%	Cc1cc([N+](=O)[O-])ccc1NC(=O)CCC(=O)N1CCCCCC1
-2.9	0.9%	2.1%	-1.7%	c1ccc(Cn2nnnc2C(c2cccs2)N2CCSCC2)cc1 (configuration not stated)

Continued:
GLA inh pH 4.5	Rango-impB inh	miR-21 reporter	Rango release inh	Structure
·	3.3%	8.4%	-0.2%	Cc1ccc(C(=O)N2CC(=O)Nc3ccc(F)cc3C2c2ccc(F)cc2)cc1 (configuration not stated)
7.5	·	-21.2%	·	O=c1c2ccccc2nc(SCc2cc(=O)n3ccsc3n2)n1CCCO
-9.0	0.0%	-1.1%	-1.5%	CC1=N/C(=C\c2ccc([N+](=O)[O-])cc2)C(=O)N1c1ccc(Cl)cc1
-12.6	-0.5%	-0.1%	25.2%	COC(=O)CSc1nnc(C)c(=O)[nH]1
10.0	-1.9%	-3.1%	18.4%	Cc1ccc(NC(=O)COC(=O)c2cccc(N3C(=O)c4ccccc4C3=O)c2)cc1
·	-0.1%	3.6%	-1.3%	Cc1ccc(C(=O)NC2CCN(C(=O)Nc3ccc(F)cc3)CC2)cc1
·	-0.3%	·	-11.0%	O=C(CSc1n[nH]c(-c2cccs2)n1)NCCc1ccccc1
0.2	-3.6%	-0.2%	-0.1%	Cc1oc2cc(O)ccc2c(=O)c1N1C(=O)c2ccccc2C1=O
·	0.8%	·	1.2%	O=C(C[C@@H]1C/C=C\C[C@@H](Cc2ccc(F)cc2)C(=O)OCCNC1=O)NCCO
6.8	-3.2%	-5.5%	-5.3%	CN1CCN(C(=O)C2=C[C@H](c3coc4ccccc4c3=O)C[C@H](OCc3ccc(CO)cc3)O2)CC1

Next part:
GLA inh pH 4.5	Rango-impB inh	miR-21 reporter	Rango release inh	Structure
·	3.0%	0.1%	-17.4%	COc1ccc(C(=O)Nn2c(C)nc3ccccc3c2=O)cc1[N+](=O)[O-]
-2.8	-4.4%	2.6%	-6.3%	O=C(Nc1nccs1)C1CCN(S(=O)(=O)c2ccc3c(c2)OCCCO3)CC1
-3.7	-1.4%	-26.0%	0.1%	C/C(=N\NC(=O)Cc1cccn1C)c1ccc2ccccc2c1
·	-3.5%	-4.2%	12.4%	COc1cccc2cc(C(=O)CS(=O)(=O)c3ccc(Cl)cc3)c(=O)oc12
·	?	-72.4%	?	O=c1oc2cc(O)ccc2cc1-c1ccccc1
·	0.0%	·	4.1%	CCCOc1ccc(C(F)(F)F)cc1NS(=O)(=O)c1ccc(Cl)nc1
-3.6	-0.7%	-34.7%	0.4%	O=C(Nc1ccccn1)c1ccc(COc2ccccc2Cl)o1
3.3	-0.8%	5.4%	-6.5%	COc1cc(C(O)P(=O)(OCCC(C)C)c2ccc(N(C)C)cc2)cc(OC)c1OC (configuration not stated)
5.4	-1.5%	-1.7%	-8.4%	O=S(=O)(Nc1cccc2ccccc12)c1cccc2nonc12
2.9	3.9%	-0.4%	-6.7%	Cc1ccc(CCN2CC(C(=O)NCCCN3CCCCCC3)CC2=O)cc1 (configuration not stated)

Additional compounds follow:
GLA inh pH 4.5	Rango-impB inh	miR-21 reporter	Rango release inh	Structure
4.6	-0.2%	-3.9%	?	C=CCc1ccccc1OCC(CN1CCCCC1)OC(C)=O (configuration not stated)
5.4	-0.7%	-3.5%	-23.6%	CCCN(CCC)Cc1cc2ccccc2c2c1COC2
?	?	-11.7%	11.9%	CCCCC(NS(=O)(=O)c1ccc(C)cc1)C(=O)Oc1ccc2c3c(c(=O)oc2c1)CCC3 (configuration not stated)
-1.9	0.3%	14.4%	4.4%	CCOCCCNC(=O)C(c1ccc(Cl)cc1)N(Cc1cccs1)C(=O)c1ccccn1 (configuration not stated)
2.2	-2.2%	0.8%	5.7%	COC(=O)C1C(=O)C2=C(CC1C)NC(=O)CC2c1ccccc1 (configuration not stated)
·	-1.5%	-38.3%	-16.5%	O=C(O)Cc1sc(NC2CCCCC2)nc1-c1ccc(Cl)cc1
-14.6	?	-10.4%	?	Cc1nn(C)c(C)c1S(=O)(=O)N1CCC(C(=O)NC2CCCc3ccccc32)CC1 (configuration not stated)
·	-3.0%	·	-0.1%	CCC(=O)Nc1ccc(C(=O)COC(=O)c2nc3nccc(C)n3n2)cc1
-6.4	2.9%	0.6%	-11.2%	CCOc1nc(-c2ccccc2)ccc1-c1noc(COC)n1
·	5.2%	-47.0%	1.4%	Cc1cc(=O)oc2cc(OCC(=O)Nc3nccs3)ccc12
11.4	2.2%	6.1%	?	Cc1onc(-c2c(F)cccc2Cl)c1C(=O)OCC(=O)Nc1c(C)n(C)n(-c2ccccc2)c1=O

Screening data from PubChem.

An excerpt (hit frequency here may not be typical).
